NPYLR7 ag = mosquito NPYLR7 agonism; 270,000 tested, 0.15% active; HEK293T NPYLR7/Galpha15, GCaMP6s calcium fluorescence; activation, % at 10 µM; in the data active = activation above about 40%;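 also: 0% = vehicle and 100% = reference agonist at the receptor; some compounds past the cut are filed as inactive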
NPYLR7 ag max-min = second read-out of NPYLR7 ag, no call of its own (marks repeat the call); activation, %; measured here: Max-Min RFU normalised activation; some inactives read as strong as hits;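 span of the calcium signal over five minutes; 0% = vehicle and 100% = native peptide agonist; compound fluorescence can raise it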
* marks the source's active call; other numbers are inactive results; & = joins results of further samples.

The opening 27 records, to show the layout:
SMILES	NPYLR7 ag	NPYLR7 ag max-min
CCCNc1ccc(C)cc1C(=O)NC(C)c1ncn[nH]1 (centres undefined)	2	2
CCC(C)Sc1nc2c(c(=O)[nH]c(=O)n2C)n1Cc1ccccc1 (centres undefined)	0	-7
COCCN(Cc1nccn1Cc1ccc(C(F)(F)F)cc1)C(=O)C1CCC1	5	13
Cc1nn(-c2ccc(Br)cc2)c(C)c1CC(=O)O	0	0
CC(NC(=O)C1CCN(C(=O)c2ccc(F)cc2)CC1)c1cccnc1 (centres undefined)	0	0
Cc1ccc(S(=O)(=O)O/N=C2\CCOc3ccccc32)cc1	-3	-5
Cc1cnccc1CNC(=O)c1cccc(OC2CCN(S(=O)(=O)N(C)C)CC2)c1	-8	-10
COc1ccc([C@H](C)NC(=O)c2ccc(-c3cc(-c4ccc(Cl)cc4Cl)[nH]n3)cc2)cc1	5	-1
CC(NC(=O)c1ccncc1)c1cccc(C(F)(F)F)c1 (centres undefined)	-1	-2
Cc1ccc(NC(=O)C2(C)CCN2C(=O)C2(c3ccc(Cl)cc3)CC2)cc1 (centres undefined)	-3	-9
Cc1ccccc1C(=O)N[C@@H]1CCCCC1NC(=O)C1CCCN(C(=O)COCc2ccccc2)C1 (some centres undefined)	1	8
COC(=O)Cn1c(=O)c2c(nc3n2CCN3c2cc(C)cc(C)c2)n(C)c1=O	11	12
CO[C@H]1C=CO[C@@]2(C)Oc3c(C)c(O)c4c(O)c(c(C=NN5CCN(C6CCCC6)CC5)c(O)c4c3C2=O)NC(=O)C(C)=CC=C[C@H](C)[C@H](O)[C@@H](C)[C@@H](O)[C@@H](C)[C@H](OC(C)=O)[C@@H]1C	-3	-9
CN(C)S(=O)(=O)N1CCc2onc(C(c3ccccc3)c3ccccc3)c2C1	18	15
Cc1cccc(NC(=O)C2(NC(=O)c3c(C)nn(C)c3C)CCCC2)c1C	3	1
Cc1ccc(-c2nc3scc(CCNS(=O)(=O)c4ccc(F)c(C(F)(F)F)c4)n3n2)cc1	-16	-14
CC(C)COC(=O)N1CCn2c(nnc2C(=O)NC(C)C)C1	7	4
CN(Cc1ccccc1)C(=O)c1nc2ccccn2c1CN1CCN(C2CCCC2)CC1	1	-5
O=C1NCC(=O)N2CCN(C(=O)CCN3CCCCCC3=O)CC12 (centres undefined)	1	4
Cc1ccc(C)c(NC(=O)C(C)NC(C)c2ccc3c(c2)CCC(=O)N3)c1 (centres undefined)	-7	-6
COc1ccc2c(CC(=O)OCn3nnc4ccccc4c3=O)coc2c1	-3	-14
COc1ccc(-c2c(N)n[nH]c2C)cc1	-1	-6
Cc1csc(CC(=O)N2CCN(C(=O)NC3CCOc4ccccc43)CC2)n1 (centres undefined)	5	3
CC(=O)c1ccc(NC(=O)c2ccc(Cl)s2)cc1	8	4
O=C(OCCc1cn[nH]c1C(F)(F)F)C1CCCc2ccccc21 (centres undefined)	0	-4
Cc1ccc(C(=O)NCCn2cc(SCC(=O)Nc3ccccc3)c3ccccc32)cc1	-3	-4
O=C(Cn1c2ccccc2c(=O)c2ccccc21)Nc1ccccn1	1	-3

The listing, previewed entries included:
SMILES	NPYLR7 ag	NPYLR7 ag max-min
CCCNc1ccc(C)cc1C(=O)NC(C)c1ncn[nH]1 (centres undefined)	2	2
CCC(C)Sc1nc2c(c(=O)[nH]c(=O)n2C)n1Cc1ccccc1 (centres undefined)	0	-7
COCCN(Cc1nccn1Cc1ccc(C(F)(F)F)cc1)C(=O)C1CCC1	5	13
Cc1nn(-c2ccc(Br)cc2)c(C)c1CC(=O)O	0	0
CC(NC(=O)C1CCN(C(=O)c2ccc(F)cc2)CC1)c1cccnc1 (centres undefined)	0	0
Cc1ccc(S(=O)(=O)O/N=C2\CCOc3ccccc32)cc1	-3	-5
Cc1cnccc1CNC(=O)c1cccc(OC2CCN(S(=O)(=O)N(C)C)CC2)c1	-8	-10
COc1ccc([C@H](C)NC(=O)c2ccc(-c3cc(-c4ccc(Cl)cc4Cl)[nH]n3)cc2)cc1	5	-1
CC(NC(=O)c1ccncc1)c1cccc(C(F)(F)F)c1 (centres undefined)	-1	-2
Cc1ccc(NC(=O)C2(C)CCN2C(=O)C2(c3ccc(Cl)cc3)CC2)cc1 (centres undefined)	-3	-9
Cc1ccccc1C(=O)N[C@@H]1CCCCC1NC(=O)C1CCCN(C(=O)COCc2ccccc2)C1 (some centres undefined)	1	8
COC(=O)Cn1c(=O)c2c(nc3n2CCN3c2cc(C)cc(C)c2)n(C)c1=O	11	12
CO[C@H]1C=CO[C@@]2(C)Oc3c(C)c(O)c4c(O)c(c(C=NN5CCN(C6CCCC6)CC5)c(O)c4c3C2=O)NC(=O)C(C)=CC=C[C@H](C)[C@H](O)[C@@H](C)[C@@H](O)[C@@H](C)[C@H](OC(C)=O)[C@@H]1C	-3	-9
CN(C)S(=O)(=O)N1CCc2onc(C(c3ccccc3)c3ccccc3)c2C1	18	15
Cc1cccc(NC(=O)C2(NC(=O)c3c(C)nn(C)c3C)CCCC2)c1C	3	1
Cc1ccc(-c2nc3scc(CCNS(=O)(=O)c4ccc(F)c(C(F)(F)F)c4)n3n2)cc1	-16	-14
CC(C)COC(=O)N1CCn2c(nnc2C(=O)NC(C)C)C1	7	4
CN(Cc1ccccc1)C(=O)c1nc2ccccn2c1CN1CCN(C2CCCC2)CC1	1	-5
O=C1NCC(=O)N2CCN(C(=O)CCN3CCCCCC3=O)CC12 (centres undefined)	1	4
Cc1ccc(C)c(NC(=O)C(C)NC(C)c2ccc3c(c2)CCC(=O)N3)c1 (centres undefined)	-7	-6
COc1ccc2c(CC(=O)OCn3nnc4ccccc4c3=O)coc2c1	-3	-14
COc1ccc(-c2c(N)n[nH]c2C)cc1	-1	-6
Cc1csc(CC(=O)N2CCN(C(=O)NC3CCOc4ccccc43)CC2)n1 (centres undefined)	5	3
CC(=O)c1ccc(NC(=O)c2ccc(Cl)s2)cc1	8	4
O=C(OCCc1cn[nH]c1C(F)(F)F)C1CCCc2ccccc21 (centres undefined)	0	-4
Cc1ccc(C(=O)NCCn2cc(SCC(=O)Nc3ccccc3)c3ccccc32)cc1	-3	-4
O=C(Cn1c2ccccc2c(=O)c2ccccc21)Nc1ccccn1	1	-3
COCCNCc1ccc(OC)c(OS(C)(=O)=O)c1	15	15
COCCN(Cc1ccsc1)Cc1ccc(C(C)(C)O)o1	25	22
Clc1ccc2nc(NCc3ccccc3)nc(-c3ccccc3)c2c1	4	2
CCOC(=O)C1=C(O)/C(=C\c2cc(O)c(OC)c(OC)c2)SC1=Nc1cccc(Cl)c1	8	10
Cc1ccc(Cn2c(=O)c3c(nc4n(CCO)c(C)cn34)n(C)c2=O)cc1	-1	35
Cc1ccccc1Cn1c(=O)c2c(nc3n(CC4CCCO4)c(C)c(C)n23)n(C)c1=O (centres undefined)	16	13
CC(COc1ccccc1)N1CCC(CO)(Cc2ccccc2)CC1 (centres undefined)	6	11
COc1ccc(N2CC(NC(=O)N3CCCCC3CCO)CC2=O)cc1 (centres undefined)	8	5
CC(=O)Nc1ccc2nc(CN3CCN(CCC(C)C)C(CCO)C3)ccc2c1 (centres undefined)	2	-2

Whole records as entered above.
O=C(Cn1c2ccccc2c(=O)c2ccccc21)Nc1ccccn1 across the screens: NPYLR7 ag = 1; NPYLR7 ag max-min = -3
COc1ccc(N2CC(NC(=O)N3CCCCC3CCO)CC2=O)cc1 (centres undefined) across the screens: NPYLR7 ag = 8; NPYLR7 ag max-min = 5

Next part.
SMILES	NPYLR7 ag	NPYLR7 ag max-min
CCOC(=O)N1CCN(C(c2ccc(Cl)cc2)C2Sc3nc(-c4ccco4)nn3C2=O)CC1 (centres undefined)	-4	-5
O=C(NCCO)C12CC3CC(CC(C3)C1)C2	8	6
CCOC(=O)CNC(=O)CSc1ncnc2c1nnn2-c1ccc(F)cc1	3	29
Cc1cccc(N2CC(O)Cn3c2nc2c3c(=O)n(CCN3CCCCC3)c(=O)n2C)c1 (centres undefined)	3	8
CCC1CN(C(=O)COc2cccnc2)CCC(=O)N1Cc1ccccc1 (centres undefined)	0	-4
O=C(Cn1cc(SCc2ccccc2)c2ccccc21)N1CCCC1	-5	-8
O=c1oc2cc(O)ccc2c2c1CCCCC2	0	-2
COc1cc(-c2nccn2Cc2ccccc2Cl)cc(OC)c1O	-3	-14
COCCOC(C)C(=O)NS(=O)(=O)CCS(=O)(=O)c1ccc(F)cc1 (centres undefined)	4	6
O=C1CN(S(=O)(=O)c2ccc(Cl)cc2C(F)(F)F)CCN1	10	10
Cc1cc(C(=O)N2CCN3CCNC(=O)C3C2)ccc1N1CCOCC1 (centres undefined)	8	5
O=C1CCCN1C(=O)CSc1nnc(COc2ccc(Cl)cc2)n1Cc1ccco1	5	4
Cc1cccc2c1OCC/C(=C\c1cc(Cl)c3c(c1)OCO3)C2=O	-2	1
O=C(COc1ccc(F)cc1)NCCc1ccc(OC(F)F)cc1	1	-3
Cc1csc(=O)n1CC(=O)OCc1cc(Cl)c2c(c1)OCO2	-1	-2
Cc1ccc(OCC(=O)N2CCCn3cncc3C2)cc1C	27	13
Cc1cc(C(=O)CSc2n[nH]c(N)n2)c(C)n1C1CC1	-3	-3
CCOCCOC(=O)C1=C(C)NC2(O)c3ccccc3C(=O)C12O (centres undefined)	-1	-1
CCc1ccc(C(O)c2ncc(-c3cccc(C)c3)[nH]2)cc1 (centres undefined)	2	0
O=C(c1cccc2c1OCC2)N1CCc2onc(-c3ccccc3F)c2C1	1	0
CC(C(=O)Nc1cccc(S(=O)(=O)N(C)C)c1)N1CCCC1 (centres undefined)	4	-2
CN1C(=O)C2(CCCN(C(=O)CCn3ccccc3=O)C2)c2ccccc21 (centres undefined)	2	1
CCS(=O)(=O)c1ncc(CN(C)Cc2nccs2)n1CCOC	12	7
c1ccc(-c2nc3c(NCCc4ccccn4)nccc3[nH]2)cc1	-3	-10
COc1cccc(-c2cc(C(=O)NCCCN3CCOCC3)n(-c3cccc(Cl)c3)n2)c1	21	18
CC(=O)c1cccc(N2C(=O)/C(=C/c3ccc(-c4cc(Cl)ccc4Cl)o3)C=C2c2ccccc2)c1	-1	5
COC(=O)C1=C(C)N(Cc2ccco2)C(=O)/C1=C\c1cc(C)n(-c2cc(C)ccc2OC)c1C	-9	-18
CC(C)(C)OC(=O)N[C@@H](Cc1ccccc1)C(=O)NCc1ccc2c3c(cccc13)C(=O)N2	-5	-11
CN=c1scc(-c2ccccc2Br)n1N=Cc1ccco1	-2	-2
O=C(Cc1ccccc1)N1N=C(C(F)(F)F)CC1(O)c1ccc(Cl)cc1 (centres undefined)	-2	2
CCN(CC)CCCCSc1ccc(O)cc1	-2	-2
Cc1cccn2c(=O)nc(SCC(=O)Nc3ccccc3)nc12	22	18
Cc1cccc(Oc2ccc(N3C(=O)C4C5C=CC(C5)C4C3=O)cc2)c1 (centres undefined)	-10	-14
O=C(Nc1ccc(Cl)cc1)c1c(Cl)nsc1Cl	0	-2
CCc1csc(CCNc2ccc(-c3nc(C4CC4)no3)cn2)n1	15	10
O=S(=O)(NCc1ccccc1)N1CCN(C2CCSCC2)CC1	4	2
Cc1ccc(S(=O)(=O)N2CCN(c3ccc(F)cc3)C(=O)C2C)cc1 (centres undefined)	-2	-2
COc1ccc(C(=O)N(Cc2ccccc2)Cc2nc3cc(Cl)ccc3o2)cc1	5	8
COc1ccccc1-c1cc(C(=O)NCCN(C)C)nc2cc(-c3ccccc3)nn12	0	7
Cn1c(SCC(=O)c2ccccc2)nc2c(c1=O)SCC2	2	2
O=c1cc(Cn2cnc3ccccc32)c2c(ccc3ccccc32)o1	2	6
CC(C)(C(=O)O)c1ccc(C(O)CCCN2CCC(C(O)(c3ccccc3)c3ccccc3)CC2)cc1 (centres undefined)	-1&4&-5&-10	-6&-12&-16&-9
CCOc1ccc(NC(=O)N2CCSC2c2cc(OC)cc(OC)c2)cc1 (centres undefined)	21	25
Cc1ccc(C(O)=C2C(=O)C(=O)N(CCCN3CCOCC3)C2c2ccco2)cc1 (centres undefined)	-3	-4
O=C(CO)NCC1CCN(Cc2ccccc2F)C1 (centres undefined)	3	3
Cc1oc(C)c(-c2ccc(Cl)cc2)c1C(=O)Nc1cccc(Cl)c1	-6	-12
Oc1cc2c(cc1CN1CCc3sccc3C1c1cccs1)OCO2 (centres undefined)	3	5
O=C1CCCN1CC(=O)N1CCOC(Cc2cccc3ccccc23)C1 (centres undefined)	17	11
Cc1cc(N2CCCCC2C(=O)N2CCOCC2)nc(-c2ccccn2)n1 (centres undefined)	3	1
CCc1ccc[n+](C2=C(c3c(C)[nH]n(-c4ccccc4)c3=O)C(=O)N(c3ccccc3)C2=O)c1	-8	2
NS(=O)(=O)c1ccc(Sc2ccc(F)c(Cl)c2)nc1	15	6
Cc1cccnc1NC(=O)c1csc(-c2cc3ccccc3[nH]2)n1	2	-1
CCOC(=O)C1C(=O)CC(O)(c2cccc(Br)c2)CC1C=C(Cl)Cl (centres undefined)	-5	3
CN1CCC(CN(C)C(=O)C2(C#N)CCCCC2)C1 (centres undefined)	-1	-6

Screening data deposited in PubChem by Fisher Drug Discovery Resource Center.

Not all compounds are listed; the hit share may differ from the screen's.
